Vaccinia Venus – inhibitors of vaccinia virus (Venus reporter) | Vaccinia virus Venus reporter expression, fluorescence | 330,000 tested, 0.46% active | Potency, µM (doses to about 36.5 µM), for the others: top-dose activity change, negative = inhibition, hits mostly inhibitors; active means well fitted inhibition curve with a large enough effect; inconclusive means small, poorly fitted or top-dose-only effect; inactive means no such curve, though single readings can be large or run the other way; tested in A549 cells; also: nearly all actives have a fitted effect of over 30% in size; inactives centre near -10
VACV mCherry inh – inhibitors of vaccinia virus infection (mCherry reporter signal) | AID 720579 | 310,000 tested, 0.63% active | Vaccinia virus mCherry reporter infection, fluorescence; about a quarter of the inactives have no number | Potency, µM (titrated, usually from 36.5 µM), inactives show top-dose activity change, negative = inhibition, hits mostly inhibitors; active = well fitted inhibition curve with a large enough effect; inconclusive = small, poorly fitted or top-dose-only effect; inactive = no such curve, though single readings can be large or run the other way; tested in A549 cells; also: nearly all actives have a fitted effect of over 35% in size; inactives centre near -10
Numbers without * were called inactive; i = inactive; ? = inconclusive; . = no result given; [ ] = dose if it differs, or a comment. % is scaled to controls: 0 for no effect and ±100 for the full control effect; potency is read from the fitted curve at half-maximal effect.

Compound	Vaccinia Venus	VACV mCherry inh
O=c1c2c(nc3cc(-c4ccccc4)[nH]n13)CCS2	-16.7%	i
CSc1cccc(NC(=O)C2CCCN(S(=O)(=O)c3ccc4c(c3)CCCN4C(C)=O)C2)c1 (stereo not given)	?	?
O=C(Cc1cccs1)NNC(=S)NCc1ccco1	-6.4%	-6.8%
COc1cccc(CN(C(=O)c2oc3ccccc3c2C)C2CCS(=O)(=O)C2)c1 (stereo not given)	-12.6%	-3.6%
Cc1cccc2cc(CN(C(=O)c3cnccn3)C3CCCCC3)c(Cl)nc12	-17.1%	i
COc1ccc(CC(=O)Nc2ccc(S(=O)(=O)Nc3nccs3)cc2)cc1	-6.7%	5.7%
CCOc1ccc(NC(=O)CSC2=Nc3ccccc3C3=NC(CCC(=O)NCc4ccco4)C(=O)N23)cc1 (stereo not given)	-12.6%	-16.9%
O=C1N/C(=N\N=C\c2ccccn2)SC1Cc1cccc(SC(F)F)c1 (stereo not given)	-10.4%	-11.8%
CC1(C(=O)NS(=O)(=O)c2ccc(Cl)cc2)CCN1C(=O)C1CCCCC1 (stereo not given)	-3.0%	48.6%[activator]
O=C(/C=C/[C@H]1O[C@@H](n2ccc(=O)[nH]c2=O)[C@H](O)[C@@H]1O)NCc1ccc2c(c1)OCO2	-2.0%	i
CCCS(=O)(=O)NC(=O)C1(C)CCCN(C(=O)c2c(C)noc2C)C1 (stereo not given)	-5.9%	17.5%
O=C(Nc1ccc2c(c1)OCCO2)c1ccc(Br)cc1	-15.1%	i
CN(C(=O)COC(=O)C1CCN(S(=O)(=O)c2c(Cl)cccc2Cl)CC1)C1CCCCC1	-3.3%	-5.0%
COc1cc(Cl)c(NS(=O)(=O)c2ccc(-c3ccc(=O)[nH]n3)o2)c(OC)c1	-14.2%	?
COc1ccccc1NC(=O)Cn1c2ccccc2c2nc3n(c(=O)c21)CCS3	-13.7%	i
Cc1ccc2[nH]c(O)c(N=O)c2c1	-3.8%	-11.2%
COc1cc(S(=O)(=O)N2CCN(C(=O)c3ccccc3F)CC2)c(OC)cc1NC(C)=O	-3.6%	-17.6%
CC(C)(C)OC(=O)CNC(=O)c1[nH]cnc1C(=O)NC1CCN(C(=O)OC(C)(C)C)CC1	-22.2%	-5.8%
O=S(=O)(c1ccc(Cl)cc1)c1ccccn1	-5.1%	-17.3%
CC(=O)c1ccc(NC(=O)C2CCCN(C(=O)c3ccc(Cl)cc3)C2)cc1 (stereo not given)	-22.4%	-10.1%

Quoted at random: 3 entries already listed.
Compound	Vaccinia Venus	VACV mCherry inh
CC1(C(=O)NS(=O)(=O)c2ccc(Cl)cc2)CCN1C(=O)C1CCCCC1 (stereo not given)	-3.0%	48.6%[activator]
Cc1cccc2cc(CN(C(=O)c3cnccn3)C3CCCCC3)c(Cl)nc12	-17.1%	i
Cc1ccc2[nH]c(O)c(N=O)c2c1	-3.8%	-11.2%

More results follow.
Compound	Vaccinia Venus	VACV mCherry inh
COc1ccccc1CNc1ccc(-c2nc(C)no2)cc1[N+](=O)[O-]	-10.6%	-22.4%
CC1CC(OP(O)(=S)c2ccc(N(C)C)cc2NC(=O)c2cccs2)CC(C)(C)C1 (stereo not given)	-4.5%	?
Cc1cccc(OCCCSc2nc(-c3ccc(C(C)(C)C)cc3)nc3cc(=O)[nH]n23)c1C	-14.4%	-9.6%
Cc1noc(C)c1S(=O)(=O)N(C)CC(=O)NCc1ccccc1	-12.4%	.
CCc1ccc(OCC(=O)N(Cc2cccs2)c2ccc(Cl)cc2)cc1	1.8%	-3.0%
CSCCC(NC(=O)COc1ccccc1)C(=O)OCCOc1ccc(F)cc1 (stereo not given)	-2.1%	-11.7%
O=C(c1ccc([N+](=O)[O-])cc1)N1CCN(C(=O)c2cccnc2)CC1	5.0%	i
COc1cc(C)ccc1S(=O)(=O)NC(=O)C1(C)CCN1C(=O)COc1ccc(Cl)cc1 (stereo not given)	?	i
CC(C(=O)N1CCc2ccccc21)N(C)CC(=O)Nc1ccc(F)cc1 (stereo not given)	-18.7%	-28.8%
O=C(Nc1c(C(=O)c2ccccc2)oc2ccccc12)c1cc(=O)c2ccccc2o1	-1.6%	-9.9%
COc1ccc(CN2CCN(CCc3ccccc3)C(CCO)C2)cc1Cn1cncn1 (stereo not given)	-16.5%	-12.0%
N/C(COc1ccc(C(=O)O)cc1)=N\O	12.6%	.
Cc1cc(OCCN2CCOCC2)ccc1[N+](=O)[O-]	-13.1%	i
O=C(Oc1ccc(-c2ccccc2)cc1)N1CCCCC1	-26.7%	.
CCOc1ncccc1C(=O)OCC(=O)c1ccc(Br)s1	-16.3%	-16.9%
COCCNC(=O)/C(C#N)=C/c1ccc(OCC(=O)NC2CCCCC2)cc1	2.0%	-8.0%
CS(=O)(=O)c1ccccc1-c1nnc(NC(=O)c2cccc(N3C(=O)CCC3=O)c2)o1	-6.4%	-10.3%
Cc1ccc(CNC(=O)CCS(=O)(=O)c2cc3c4c(c2)CCN4C(=O)CC3)cc1	-3.8%	-4.8%
COc1ccc(C(=O)Nc2nnc(-c3ccco3)s2)cc1	-19.9%	-20.2%
Cc1ccc(NC(=O)C(=O)NCCN2CCN(S(C)(=O)=O)CC2)cc1C	-12.8%	i
CCc1ccc(OCC(=O)NC(Cc2c[nH]c3ccccc23)C(=O)O)cc1 (stereo not given)	11.4%	-5.8%
COCC(C)N1CCC(Oc2ccc(C(=O)N3CCCC3)cc2)CC1 (stereo not given)	-10.4%	i
CCOC(=O)c1cc(-c2ccc(OC)cc2)n(CCC(=O)Nc2nc3ccc(OCC)cc3s2)c1C	-13.5%	-9.7%
Cc1ccc(NCN2C(=O)c3ccccc3C2=O)cc1Cl	-3.6%	i
Cc1cc(C(=O)N2CCCC(N3CCN(c4cccc(Cl)c4)CC3)C2)no1 (stereo not given)	-15.8%	-7.0%
Cc1ccc2nc(SCC(=O)Nc3ccc(C)c([N+](=O)[O-])c3)[nH]c2c1	-13.8%	-9.7%
COc1ccc(-c2ccc3oc(-c4ccc(OC)cc4)c(-c4cc(OC)c(OC)c(OC)c4)c3c2)cc1	-8.9%	i
CCOC(=O)c1ncn2c1CN(C)C(=O)c1cc(F)ccc1-2	-21.7%	-9.0%
COc1ccc(/C=C2/C(=O)N=C3SCCN32)cc1	-27.2%	.
Cc1ccc(C)c(N2CCN(S(=O)(=O)c3ccc4c(c3)CCN4C(=O)CCC(=O)O)CC2)c1	-5.1%	3.8%
Cc1nc(CS(=O)(=O)c2ccc(Cl)cc2)cc(N2CCOCC2)n1	2.5%	.
Cc1nc(SCc2ccc(C(=O)O)cc2)c2c(C)c(C)sc2n1	-4.8%	i
O=C(Nc1ccccc1)/C(=C/c1ccc([N+](=O)[O-])cc1)NC(=O)c1ccco1	-0.5%	-19.3%
O=C(CN1CCOCC1)N/N=C/c1c(O)ccc2ccccc12	?	?
CCOC(=O)c1c(C)[nH]c(C)c1C(=O)CSc1nnc(-c2ccncc2)n1Cc1ccccc1	-12.3%	-3.5%
COc1ccccc1CNC(=O)COc1cccc(-n2cnnn2)c1	-7.4%	-13.2%
COc1ccc(S(=O)(=O)Nc2ccc(NC(C)=O)cc2)cc1[N+](=O)[O-]	-6.0%	5.7%
CCCC(=O)Nc1ccc(C2C(=O)c3ccccc3C2=O)cc1	-3.9%	i
CCOC(=O)[C@@H]1[C@H]2COc3cc(OC)ccc3[C@@H]2N2C(=O)N(c3cccc(Cl)c3)C(=O)[C@]12C	-9.3%	i
CN1CCC[C@H]1CCNc1ccc2c(=O)c3ccccc3n(C)c2c1	?	?

The list goes on:
molecule	Vaccinia Venus	VACV mCherry inh
CCOc1ccc(OCCN2CCCCC2)cc1	-7.9%	-14.9%
CCOc1cccc2c1N[C@@H](c1ccc(C(=O)O)cc1)[C@H]1CC=C[C@@H]21	9.4%	1.2%
CCn1c2ccccc2c2cc(NC(=O)COC(=O)c3ccccc3F)ccc21	?	10µM*
COc1ccccc1NC(=O)c1ccc(S(=O)(=O)N(C)c2ccccc2)cc1	-11.7%	-2.8%
CC(C)CNc1nc(Oc2ccc(=O)[nH]n2)nc(N2CCOCC2)n1	-10.0%	i
Cc1cc(C)c2c(c1)C(=O)/C(=C/c1ccc(C(=O)O)cc1)CC2	-3.8%	i
COc1cc(O)c(C(CCN2CCCC(C)C2)c2ccc3c(c2)OCO3)c(OC)c1 (stereo not given)	-2.7%	?
CC(C)(C)OC(=O)C(Oc1ccccc1[N+](=O)[O-])C(=O)OC(C)(C)C	-9.8%	-16.9%
Cc1cc(NC(=O)CSc2nc(C3CC3)nc3sc(C)c(C)c23)no1	-27.0%	-21.4%
Nc1nnc(CCOc2ccc(Cl)cc2)s1	0.0%	-2.9%
COc1ccc(-c2cc(C(=O)Nc3c(C)n(C)n(-c4ccccc4)c3=O)no2)cc1	-3.9%	-8.0%
O=C(C[C@H]1C[C@H]2c3cc(NC(=O)CC4CC4)ccc3O[C@H]2[C@H](CO)O1)NCc1ccccc1F	-20.8%	-5.6%
Cc1ccc2c(c1)C(=O)C(=O)N2CC(=O)Nc1ccccc1NC(=O)c1ccccn1	2.7%	-9.6%
O=C(CSc1nnc(NC(=O)C2CC2)s1)NCc1ccco1	0.5%	i
COCCN(CC(=O)Nc1cccc(C)c1)S(=O)(=O)c1ccc(S(=O)(=O)N2CCCC2)cc1	-18.7%	-1.3%
O=C(NC(C(=O)N/N=C/c1cc([N+](=O)[O-])ccc1O)c1n[nH]c(=O)c2ccccc12)c1ccccc1 (stereo not given)	-15.5%	-22.8%
CSc1ccc(C2c3c(oc4cc(C)cc(C)c4c3=O)C(=O)N2Cc2ccco2)cc1 (stereo not given)	-1.6%	-2.0%
CCOC(=O)C1=C(C)N(CCC(=O)O)C(=O)NC1c1ccccc1Cl (stereo not given)	-8.7%	i
COc1ccc(C(=O)COC(=O)c2cc([N+](=O)[O-])ccc2N2CCOCC2)c(OC)c1	-12.8%	-18.5%
CCc1ccc(-n2nc(C)c3c(C)cc(=O)n(CC(=O)Nc4ccc(OC)c(OC)c4)c32)cc1	4.3%	-11.9%
CN1C=CC=C/C1=C1/SC(=S)N(Cc2ccccc2)C1=O	-10.5%	i
Cc1ccc(NC(=O)C(=O)NCC(c2cccnc2)N2CCN(Cc3ccccc3)CC2)cc1 (stereo not given)	-19.1%	i
CCN(CC)c1ccc(/C=N/NC(=O)c2cccc(S(=O)(=O)N3CCOCC3)c2)c(O)c1	?	1.78µM*
C[N+]1(C)[C@@H]2CC[C@H]1CC(OC(=O)C(CO)c1ccccc1)C2 (stereo not given in full)	-5.8%	i
O=C(CCc1ccccc1)N/N=C\C1CC=CCC1 (stereo not given)	-17.7%	-0.9%
C=CCOC(=O)C1=C[C@H](c2cn(C(C)=O)c3ccccc23)C[C@H](OCCCCO)O1	-6.2%	i
CCNC(=O)NC(=O)COC(=O)CCCSc1nc2ccccc2s1	-10.8%	-19.3%
CCc1nnc(NC(=O)CSc2nc(C)cs2)s1	9.4%	-4.6%
C=CCCCN(Cc1ccccc1)S(=O)(=O)c1ccccc1Br	-4.4%	i
COc1ccc(NC(=O)C(F)(OC)C(F)(F)F)c(OC)c1 (stereo not given)	-10.2%	i

A draw from above in order of count of non-hydrogen atoms, lowest first.
molecule	Vaccinia Venus	VACV mCherry inh
C=CCCCN(Cc1ccccc1)S(=O)(=O)c1ccccc1Br	-4.4%	i
CC(C)(C)OC(=O)C(Oc1ccccc1[N+](=O)[O-])C(=O)OC(C)(C)C	-9.8%	-16.9%
O=C(C[C@H]1C[C@H]2c3cc(NC(=O)CC4CC4)ccc3O[C@H]2[C@H](CO)O1)NCc1ccccc1F	-20.8%	-5.6%

Part of the list above, with values under each structure.
Value order – Vaccinia Venus | VACV mCherry inh
> COc1ccccc1NC(=O)c1ccc(S(=O)(=O)N(C)c2ccccc2)cc1
→ -11.7% | -2.8%
> CC(C)CNc1nc(Oc2ccc(=O)[nH]n2)nc(N2CCOCC2)n1
→ -10.0% | i

(cont.)
molecule	Vaccinia Venus	VACV mCherry inh
CC1=C(C(=O)N2CCOCC2)C(c2cc(C)ccc2C)NC(=S)N1 (stereo not given)	-0.1%	-9.9%
O=C(NCCS(=O)(=O)N1CCN(c2ccccc2)CC1)C1CC(=O)N(c2ccccc2)C1 (stereo not given)	-8.2%	-14.1%
O=C(N/N=C/c1cccnc1)c1ccc(NC(=O)c2cccc(Cl)c2)cc1	18.6%	-26.8%
O=C(COc1ccc(Cl)cc1Cl)N/N=C/c1cccnc1	14.1%	-1.6%
CCOC(=O)c1c(NC(=O)COC(=O)c2cnc(C)cn2)sc(C(=O)N(C)C)c1C	-10.9%	-11.8%
Cc1c(C(=O)Nc2nonc2-c2ccc(F)cc2)oc2ccc(F)cc12	?	?
Cc1coc2c(C)c3oc(=O)c(CCC(=O)NCc4ccccn4)c(C)c3cc12	7.0%	-8.0%
c1ccc(Nc2c3c(nc4ccccc24)CCC3)cc1	-5.2%	?
Cc1ccc(NC(=O)c2ccc([N+](=O)[O-])o2)cc1C	?	?
CCOC(=O)C1CCC(CN(Cc2ccc(OC)cc2)S(=O)(=O)c2ccc(F)c(C(=O)Nc3ccc(C)c(C)c3)c2)CC1 (stereo not given)	-4.9%	-3.5%
CCOC(=O)c1noc2ncnc(Nc3cccc(OC)c3)c12	1.9%	-4.9%
CN(C)c1ccc(-c2ccnc3c2CC(C)(C(=O)Nc2ccc(Cl)cc2)O3)cc1 (stereo not given)	-11.6%	12.5%
O=c1c(-c2ccc(O)cc2O)coc2cc(O)cc(O)c12	3.8%	-13.7%
CCOC(=O)CN1CCC(C2(c3cc4ccccc4[nH]3)OCCO2)CC1	-2.6%	i
